# CtBP-E1A inh = inhibitors of CtBP/E1A interaction; activity change, % (concentration not given with the values); AlphaScreen GST-E1A/His-CtBP binding, 1536-well; active compounds read low; control for the full effect not named in the record; AID 651724; 340,000 compounds, 0.49% hits; in the data active means activity change below about -65%; inconclusive means about -30% to -65%; inactive means above about -30%; further: on the % scale 0 is the no-effect control and ±100 the full control effect
#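 Homogeneous bead-based format: GST-tagged E1A captured on glutathione donor beads, His-tagged CtBP on nickel acceptor beads; compounds precede bead addition by 2 h at 37 °C.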
# PINK1 modulator = PINK1 expression modulation; PINK1 immunofluorescence, high-content cytometry, 24 h; Potency, µM (doses to about 76.6 µM), without a hit: at the top dose activation (PINK1 increase), most hits filed as activators; 410,000 compounds, 0.2% hits; AID 624263; active = well fitted activation curve with a large enough effect; inconclusive = small, poorly fitted or top-dose-only effect; inactive = flat fitted curve, though single readings scatter; cell line not stated here;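 further: potency means the concentration at half of the fitted maximal effect; % of control where 0% means no effect; nearly all actives have a fitted effect of over 65% in size; a mitochondrial uncoupler was the plate control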
#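 PINK1 protein level read as immunofluorescence by microplate cytometer in a fixed, stained stable cell line after 24 h exposure to five compound concentrations, with CCCP as control.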
# Six1-Eya2 inh = Six1/Eya2 interaction inhibition; AlphaScreen GST-Six1/His-Eya2 binding, biochemical; active compounds read low; control for the full effect not named in the record; 360,000 compounds, 0.56% hits; activity change, % (no concentration beside the values); AID 651725; in the data active = activity change below about -65%; inconclusive = about -30% to -65%; inactive = above about -30%; further: on the % scale 0 is the no-effect control and ±100 the full control effect
# Target sequence (O00167 whole entry, looked up): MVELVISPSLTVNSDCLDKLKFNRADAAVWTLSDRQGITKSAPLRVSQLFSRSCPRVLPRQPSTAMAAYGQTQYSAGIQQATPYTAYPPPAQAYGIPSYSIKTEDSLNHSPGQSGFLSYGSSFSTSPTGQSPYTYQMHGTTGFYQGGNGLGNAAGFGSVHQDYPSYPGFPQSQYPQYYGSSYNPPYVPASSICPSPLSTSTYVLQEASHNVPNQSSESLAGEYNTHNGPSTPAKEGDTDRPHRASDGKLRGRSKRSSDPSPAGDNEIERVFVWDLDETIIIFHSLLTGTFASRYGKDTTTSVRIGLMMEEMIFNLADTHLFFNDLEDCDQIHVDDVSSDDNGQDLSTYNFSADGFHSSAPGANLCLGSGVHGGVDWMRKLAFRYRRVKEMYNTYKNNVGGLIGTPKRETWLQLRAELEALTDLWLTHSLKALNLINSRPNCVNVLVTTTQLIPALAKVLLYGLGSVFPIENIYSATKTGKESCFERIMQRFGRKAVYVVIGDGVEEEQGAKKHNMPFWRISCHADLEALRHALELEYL
# Target sequence (Q15475 whole entry, looked up): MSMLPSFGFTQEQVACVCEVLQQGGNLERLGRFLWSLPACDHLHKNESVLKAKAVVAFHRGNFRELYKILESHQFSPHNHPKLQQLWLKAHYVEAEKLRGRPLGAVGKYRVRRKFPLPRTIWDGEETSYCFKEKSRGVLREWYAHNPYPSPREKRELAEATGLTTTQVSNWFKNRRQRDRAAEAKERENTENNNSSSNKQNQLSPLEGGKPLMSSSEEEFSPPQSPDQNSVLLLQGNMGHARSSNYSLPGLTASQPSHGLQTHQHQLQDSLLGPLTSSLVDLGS
#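 Six1/Eya2 binding was read as AlphaScreen signal after compounds were pinned into GST-Six1 plus His-tagged Eya2 (5X stock 250/500 nM) in pH 8.0 Tris/NaCl/TCEP buffer, beads added, then incubated 1 h, 37 C, dark.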
# D2 potentiator = positive allosteric modulators of human D2 dopamine receptor | AID 624464 | potentiation, % (concentration not given with the values) | 360,000 compounds, 0.23% hits | P14416 | DiscoveRx D2 beta-arrestin cells, luminescence, 90 min; 100% = 57 uM dopamine signal; active = potentiation of 50% or more; inconclusive = 30% to 50%; inactive = 30% or less;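 further: tested on top of an EC20 dose of dopamine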
#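 PathHunter D2 cells, attached overnight at 37 deg C, received compound in DMSO plus dopamine at EC20 (50 nM final) for 90 min at 37 deg C. Beta-arrestin recruitment was read as luminescence after 1 h with detection reagent at ambient temperature.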
# D2 ag = activates the human D2 dopamine receptor | P14416 | DiscoveRx PathHunter D2 beta-arrestin, luminescence, 90 min; 100% = 57 uM dopamine signal | activation, % (test concentration not listed) | 360,000 compounds, 0.084% hits; in the data active = activation above about 40%; inconclusive = about 15% to 40%; inactive = below about 15%; further: compound concentration not given in the record; the text of the record calls up to 30% inactive
#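 DiscoveRx PathHunter D2 beta-arrestin cells (2,100/well) attached overnight, then compound-stimulated 90 min at 37 C in HBSS/10 mM HEPES/0.1% Tween-20 buffer; beta-galactosidase complementation read by luminescence after 1 h at ambient temperature. Dopamine 57 uM final (EC100) as control.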
# TRPML1 agonist = human mucolipin-1 channel agonism. TRPML1-expressing cells, Ca2+ dye fluorescence, FDSS; host cell line not named in the record; reference of the full effect not given here. activation, % (test concentration not listed). 410,000 compounds, 0.12% hits; in the data active = activation above about 50%; inconclusive = about 30% to 50%; inactive = below about 30%; further: 0% is about no effect; the text of the record puts the active cut at 80%
#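 TRPML1-DL cells, Tet-induced overnight (~16 h, 37 degrees C), loaded 45-90 min at room temperature with Ca8 no-wash calcium dye plus quencher. FDSS fluorescence: 10 s baseline, compound pin-transfer, 110 s agonist read, then EC80 54-4 (4uM final) and 110 s antagonist read.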
# An asterisk follows results filed as active; ? = inconclusive; . = not tested or not shown; & = joins results of further samples; [ ] = remark or other dose.
# A first look, 2 compounds:
nr	SMILES	CtBP-E1A inh	PINK1 modulator	Six1-Eya2 inh
1	O=C(CCl)Nc1c(C(=O)Nc2ccc3c(c2)OCCO3)oc2ccccc12	-1	-1.7%	-6
2	O=C(CN1CCN(S(=O)(=O)c2ccccc2)CC1)Nc1cccc(C(F)(F)F)c1	3	-0.1%	0

nr	D2 potentiator	D2 ag	TRPML1 agonist
1	9	-2.8	0.8
2	-23	0.0	0.7

# This part in full, previewed entries included:
nr	SMILES	CtBP-E1A inh	PINK1 modulator	Six1-Eya2 inh
1	O=C(CCl)Nc1c(C(=O)Nc2ccc3c(c2)OCCO3)oc2ccccc12	-1	-1.7%	-6
2	O=C(CN1CCN(S(=O)(=O)c2ccccc2)CC1)Nc1cccc(C(F)(F)F)c1	3	-0.1%	0
3	O=C(NCc1ccccc1Cl)C1CCN(S(=O)(=O)c2cccc3nonc23)CC1	0	9.5%	18
4	O=C(c1ccoc1)N1CCCC(CO)(CCCc2ccccc2)C1 (stereo unspecified)	-11	-0.2%	-13
5	CCOC(=O)N1CCN(C(=O)C2CCN(Cc3ccc(OC)cc3OC)CC2)CC1	4	-0.9%	8
6	Cc1ccc(C)c(OCCC(=O)N(C)CC(=O)Nc2c(C)cccc2C)c1	10	-0.2%	2
7	COc1cccc(CNCCc2c[nH]c3ccccc23)c1OCc1ccccc1F	0	.	-29
8	O=C(CO/N=C/c1ccc(OC(F)F)cc1)NC1CCCC1	-1	-2.0%	-6
9	O=C(Nc1n[nH]c(C(F)(F)F)n1)c1cccs1	9	2.7%	-2
10	O=C(COC(=O)c1ccc(Cl)nc1)Nc1ccc(Cl)cc1	6	11%	6
11	COc1ccc(OC)c(-n2nnnc2SCC(=O)N2CCN(C(=O)c3ccco3)CC2)c1	8	-0.5%	-1
12	O=C(NC1CCN(S(=O)(=O)c2ccc(F)cc2)CC1)c1cccc(F)c1	3	6.7%	13
13	COc1cc(OC)c(NC(=O)c2ccccc2F)cc1Cl	.	1.7%	1
14	CCCSc1nc(C)cc(=O)[nH]1	5	-1.0%	5
15	CCc1ccc(NC(=O)c2cnn3c(C(F)F)cc(C)nc23)cc1	2	4.4%	3

nr	D2 potentiator	D2 ag	TRPML1 agonist
1	9	-2.8	0.8
2	-23	0.0	0.7
3	-3	-0.7	0.2
4	-8	-6.9	-0.1
5	-1	1.3	0.2
6	-2	4.9	-0.1
7	-27	-2.1	1.7
8	2	6.2	-0.2
9	-9	-1.1	0.1
10	-6	1.3	-0.6
11	-2	-3.1	-0.5
12	1	-2.8	0.4
13	0	-1.1	-1.1
14	-4	-1.5	1.0
15	-8	-4.8	-0.7

# (listing goes on)
nr	SMILES	CtBP-E1A inh	PINK1 modulator	Six1-Eya2 inh
16	O=C(/C=C/Nc1ccc(OC(F)(F)F)cc1)C(F)(F)F	-8	-0.4%	9
17	O=C(Nc1c(-c2ccc(Cl)cc2)[nH][nH]c1=O)c1ccccn1	-8	-0.7%	-10
18	Cc1ccc2[nH]c(=O)c(C(c3nnnn3C(C)(C)C)N(Cc3ccco3)CC3CCCO3)cc2c1 (stereo unspecified)	0	0.0%[38.3 µM]	1
19	COc1ccc(-n2ccnc2SCC(=O)NC2CCCC2)c(OC)c1	-3	-1.7%	6
20	COc1cccc(NC(=O)CN(C)C(=O)c2ccccc2Sc2ccccc2C#N)c1	-6	3.0%	-11
21	CN(c1cccc(NC(=O)CN(c2ccc(F)cc2)S(C)(=O)=O)c1)S(C)(=O)=O	-17	0.1%	8
22	O=C(O)C1CC=CCC1C(=O)NCc1cn2ccccc2n1 (stereo unspecified)	-1	-0.8%	1
23	Cn1c(=O)oc2cc(S(=O)(=O)N3CCC(C(=O)NCc4ccccc4Cl)CC3)ccc21	1	12%&1.0%	1
24	COc1cccc(-n2nc(C(C)=O)c(C#N)c2-c2ccco2)c1	2	1.7%	0
25	N=C1C(c2nc3ccccc3[nH]2)=C(O)CN1c1ccc(CC(=O)O)cc1	-19	-1.3%[38.3 µM]	-13
26	CCCCN(C)C(=O)Cc1c(OC)ccc2cc(Br)ccc12	2	2.4%	-4
27	S=c1[nH]nc(-c2cccnc2)n1/N=C/c1cccs1	1	-0.4%	-2
28	CN(C(=O)COC(=O)c1cc(S(=O)(=O)N2CCCCC2)ccc1Cl)c1ccccc1	.	-0.5%	19
29	O=C(CCSCCC(=O)NN=Cc1cccc(Cl)c1)NN=Cc1cccc(Cl)c1	-1	12%	6
30	O=C1CN=C(Nc2ccccc2Cl)N1Cc1ccc2c(c1)OCO2	-1	0.5%	-1

nr	D2 potentiator	D2 ag	TRPML1 agonist
16	-4	-0.1	1.0
17	-25	-12	0.0
18	-8	1.1	3.1
19	-10	-5.7	0.6
20	-2	3.0	0.9
21	-4	-6.6	-0.5
22	-1	1.2	0.1
23	1	1.2	-0.4&0.1
24	-2	-6.7	2.2
25	3	-5.2	-0.3
26	-21	-3.3	1.9
27	2	-2.5	0.0
28	-3	1.6	1.1
29	4	-3.4	5.4
30	11	-2.1	-0.5

# (list continues)
nr	SMILES	CtBP-E1A inh	PINK1 modulator	Six1-Eya2 inh
31	Cc1c(NC(=S)NC(=O)c2ccco2)c(=O)n(-c2ccccc2)n1C	-12	-1.5%	6
32	Cc1nn(-c2ccccc2)c2sc(C(=O)n3cccn3)cc12	-1	0.8%	3
33	O=C(CNc1cccc2ccccc12)N/N=C/c1ccc(C(=O)O)cc1	-8	-0.3%	-2
34	O=C(NCc1ccc(F)cc1)C1CCCN1C(=O)Nc1ccc(F)cc1 (stereo unspecified)	.	2.2%	1
35	O=C1C2C3C=CC([C@@H]2C(=O)N1c1nccs1)C31CC1 (stereo partly specified)	13	-0.3%	-2
36	CC(C)(C)c1ccc(-c2n[nH]c(=S)n2CC2CCCO2)cc1 (stereo unspecified)	2	4.3%	-6
37	Cc1cccc(NC(=O)CSc2nncn2N)c1C	5	0.5%	3
38	O=C(O)c1ccc(NC(=S)NC(=O)c2ccc(-c3ccc(Br)cc3)o2)cc1	-10	-1.6%	6
39	CC(/C=C/c1ccco1)=N\NC(=O)CNc1cccc(C)c1	-7	-0.4%	9
40	COC(=O)COc1ccc2occ(C(C)=O)c2c1	28	-3.7%[38.3 µM]	3
41	COc1cccc(CNC(=O)CSc2ccc(-c3ccco3)nn2)c1	-8	0.1%	-6
42	COc1ccc(NS(=O)(=O)c2ccc3c(c2)CCO3)cc1	0	1.1%	-5
43	COCC(=O)Nc1cccc(-c2ccc3nncn3n2)c1	6	0.2%	0
44	CC(C)[C@@H]1CC[C@@H](C)c2c(-c3ccccc3)n[nH]c21	-3	-1.9%	3
45	CN1C(C(=O)NCc2ccccc2)CC2Cn3c(nc4cc(Cl)c(Cl)cc43)C21 (stereo unspecified)	7	4.0%	-1

nr	D2 potentiator	D2 ag	TRPML1 agonist
31	-3	1.2	0.6
32	-14	-7.9	-0.2
33	11	1.8	1.0
34	-7	1.9	0.3
35	-3	-0.1	0.3
36	-8	-5.6	-0.6
37	-7	-1.4	-0.5
38	-6	2.2	0.2
39	-8	-4.7	2.3
40	-13	-3.1	-0.4
41	0	-3.8	0.3
42	-3	-1.4	-0.2
43	-10	-1.9	-0.6
44	-16	-0.8	3.3
45	-13	0.3	-0.6

# Remaining list, next part.
nr	SMILES	CtBP-E1A inh	PINK1 modulator	Six1-Eya2 inh
46	Cc1ccc2nsnc2c1S(=O)(=O)N1CCN(C)CC1	4	-1.5%	2
47	COc1cccc(NC(=O)Cn2c(=O)n(CCCC(=O)NCc3ccco3)c(=O)c3ccccc32)c1	0	1.6%	-4
48	CCCCn1cnc2c(=S)nc(N)[nH]c21	0	-1.8%	-6
49	COc1ccc(/C=C(\NC(=O)c2ccccc2Cl)C(=O)NCCCC(=O)O)cc1	4	-0.8%	8
50	CN(C)c1ccc(NC(=O)CSc2nnc(C3CCCCC3)n2N)cc1	-2	-0.7%	-12
51	O=[N+]([O-])c1ccc(C2CC(c3ccccc3)=Nc3ccccc3S2)cc1 (stereo unspecified)	.	-1.3%	-10
52	COc1ccc(CCNc2c(C=O)c(=O)[nH]c3ccccc23)cc1OC	.	2.4%	6
53	O=C(Nc1ccccc1)c1sc(Cl)nc1-c1ccccc1	2	0.9%	13
54	COc1ccccc1OCc1ccc(C(=O)N2N=C(C(F)F)CC2(O)C(F)F)o1 (stereo unspecified)	2	4.5%	0
55	COc1cc2[nH]c(=S)n(Cc3ccc(F)cc3)c(=O)c2cc1OC	0	1.7%	3
56	COc1ccc(N2CCN(C(=O)CCNS(=O)(=O)c3ccccc3)CC2)cc1	.	2.8%	1
57	CC(=O)c1ccc(NC(=O)C2CC(=O)N(C(C)C)C2)cc1 (stereo unspecified)	-11	0.9%	2
58	COc1ccc(Cc2nnc3sc(SCC(=O)Nc4ccccc4)nn3c2=O)cc1OC	?	2.7%	?
59	CCN(CC)c1ccc(CNc2nc3ccccc3n2CCN2CCCCC2)cc1	?	?	?
60	CC(C)C(=O)Nc1ccccc1N1CCN(C(=O)c2ccccc2)CC1	-2	-2.0%	-8

nr	D2 potentiator	D2 ag	TRPML1 agonist
46	-6	-1.2	0.6
47	-23	-4.0	0.1
48	-5	2.8	0.3
49	-7	-1.5	-0.1
50	-8	-3.3	-0.3
51	-24	0.9	-0.1
52	-2	1.6	-1.0
53	4	-1.5	5.3
54	-27	-2.1	0.9
55	-5	-5.6	1.0
56	-4	1.7	-0.3
57	0	3.9	0.0
58	-10	-3.8	0.7
59	-14	-5.3	2.0
60	-1	0.0	2.1

# New compounds follow
nr	SMILES	CtBP-E1A inh	PINK1 modulator	Six1-Eya2 inh
61	O=C(c1c[nH]c2ccc(S(=O)(=O)N3CCC4(CC3)OCCO4)cc2c1=O)N1CCOCC1	7	0.0%	2
62	Nc1ncnc2c1ncn2[C@@H]1O[C@H](CNS(=O)(=O)c2cc3ccccc3s2)[C@@H](O)[C@H]1O	0	-0.1%	3
63	COc1ccc(F)cc1S(=O)(=O)N1CCN(c2ccccn2)CC1	8	0.7%	6
64	CN(CCO)c1nc(N)c2c(N)nc3c(c2c1C#N)CC(=O)N3Cc1cccs1	.	4.5%	-27
65	O=C(Nc1ccn(CCCNCC2CCCO2)c(=O)n1)OCc1ccccc1 (stereo unspecified)	4	-0.4%	4
66	COCCCNC(=O)c1cc(=O)n(Cc2ccc(Cl)cc2)c2ccccc12	-2	7.7%	-2
67	Cc1snc(SCc2c(F)cccc2Cl)c1C#N	32	3.1%	23

nr	D2 potentiator	D2 ag	TRPML1 agonist
61	7	-0.6	-1.0
62	.	-2.6	0.5
63	-4	1.8	0.6
64	12	-5.1	2.3
65	-2	-3.0	-0.5
66	0	-1.5	0.6
67	-8	2.1	0.7

# Whole records, looked up by structure. Order of screens: CtBP-E1A inh | PINK1 modulator | Six1-Eya2 inh | D2 potentiator | D2 ag | TRPML1 agonist
# Listed for Nc1ncnc2c1ncn2[C@@H]1O[C@H](CNS(=O)(=O)c2cc3ccccc3s2)[C@@H](O)[C@H]1O : 0 | -0.1% | 3 | . | -2.6 | 0.5
# Listed for CN(CCO)c1nc(N)c2c(N)nc3c(c2c1C#N)CC(=O)N3Cc1cccs1 : . | 4.5% | -27 | 12 | -5.1 | 2.3

# From PubChem
